Screening results: PubChem BioAssay, several laboratories
MT1-MMP act inh = blocks activation of human MT1-MMP. HT1080 RFP-PRO-GFP cells, GFP/RFP ratio fluorescence, overnight; percent of plate control window, DMSO zero. P50281. GFP/RFP ratio change, % at 20 µM. 360,000 compounds, 0.061% hits;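 active = GFP/RFP ratio change of at least 30% with cell ATP level not reduced by more than half and red fluorescence within 50% of control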; also: strong numbers were not always called active
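Assay system – RFP-PRO-GFP reporter HT1080 cells · Compound dosing – single dose of 20 µM compound, 1% DMSO final · Incubation – overnight compound exposure at 37 °C · Measure – GFP/RFP fluorescence ratio · Benchmarks – DMSO wells and RFP-L50D-GFP cells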
PABP FP inh = PABP-poly(A) binding inhibition; P11940; PABP-poly(A) RNA binding, fluorescence polarization; inhibition, % at 35 µM; 290,000 compounds, 1% hits; AID 2014;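 active = 50% or more with normal probe brightness, or confirmed in later tests; inconclusive = above 50% with abnormal brightness, or retests that disagree; inactive = below 50% or failed in later tests; about a fifth of its hits are not listed in these tables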;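 also: calls also rest on retests at 20 µM and on dose response follow-up; controls were probe without protein and protein plus probe with vehicle; some compounds called inactive have numbers as strong as hits; many hits fall short of the cut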
Target sequence (P11940 whole entry, looked up): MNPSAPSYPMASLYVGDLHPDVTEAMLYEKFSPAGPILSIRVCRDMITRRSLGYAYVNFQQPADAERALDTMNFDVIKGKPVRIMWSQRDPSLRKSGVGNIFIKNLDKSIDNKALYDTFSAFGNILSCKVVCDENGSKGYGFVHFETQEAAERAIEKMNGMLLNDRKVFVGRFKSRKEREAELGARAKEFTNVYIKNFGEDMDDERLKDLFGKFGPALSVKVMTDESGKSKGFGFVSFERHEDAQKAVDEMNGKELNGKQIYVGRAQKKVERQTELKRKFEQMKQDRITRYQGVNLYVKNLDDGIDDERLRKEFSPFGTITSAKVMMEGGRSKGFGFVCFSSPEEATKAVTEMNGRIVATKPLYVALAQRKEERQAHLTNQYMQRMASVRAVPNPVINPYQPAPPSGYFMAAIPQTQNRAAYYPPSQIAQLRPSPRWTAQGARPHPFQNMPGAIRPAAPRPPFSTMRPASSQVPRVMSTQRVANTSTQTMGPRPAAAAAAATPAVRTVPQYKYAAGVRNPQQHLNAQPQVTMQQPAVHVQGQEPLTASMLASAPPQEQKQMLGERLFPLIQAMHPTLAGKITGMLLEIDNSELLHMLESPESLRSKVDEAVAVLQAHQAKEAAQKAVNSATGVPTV
Env fusion inh = inhibitors of HIV Env-mediated cell fusion; HeLa-JRFL Env/CEM21 cell fusion, luciferase; 360,000 compounds, 1.1% hits; inhibition, % at 12.3 µM;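 active = mean replicate inhibition score of at least 50 and every replicate individually at or above 50; inconclusive = only one of the two criteria met; inactive = mean below 50 and not all replicates reaching 50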;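 also: 0% = plate neutral controls and 100% = maraviroc near 300 nM; one replicate is shown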
CSC inhib = blocks cancer stem cells; AID 2717; 300,000 compounds, 1.1% hits; cancer stem cell-like cells viability, luminescence; inhibition, % at 7.5 µM;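 active = mean at 75% or more and at least half the replicates too; inconclusive = mean and replicates disagree; tested in HMLE shEcad cells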;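 also: 0% = median of negative and 100% = median of positive control wells; the first replicate is given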
Yeast UUG start = yeast start codon fidelity modulation | S. cerevisiae UUG-firefly luciferase reporter, luminescence/redox ratio | activity score, % at 18.7 µM | 350,000 compounds, 0.13% hits;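 active = replicate mean at a twofold rise or more, about +100% in these data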;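 also: firefly luciferase made from a UUG start codon reports start codon fidelity; reporter light over untreated wells divided by growth signal over untreated wells; some hits fall short of that in this replicate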
eIF4H FP inh = inhibitors of RNA binding by human eIF4H. eIF4H fluorescence polarization binding assay. inhibition, % at 35 µM. 290,000 compounds, 0.94% hits. AID 2012;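 active = 50% or more with normal probe brightness, or confirmed in later tests; inconclusive = above 50% with abnormal brightness, or retests that disagree; inactive = below 50% or failed in later tests; about a fifth of its hits are not listed in these tables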;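 also: calls also rest on retests at 20 µM and on dose response follow-up; 0% = protein and probe with vehicle and 100% = probe without protein; strong numbers were not always called active; many hits fall short of the cut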
Rce1 inh = yeast Ras-converting enzyme inhibition; Q03530; yeast membranes, quenched prenylated peptide cleavage fluorescence; calls only; 290,000 compounds, 0.27% hits;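 active = fall in fluorescence gain of 50% or more versus controls, with final raw signal at or below 3038400; inconclusive = same 50% fall but final raw signal above 3038400; inactive = fall in fluorescence gain under 50%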;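 also: plate controls were neutral control wells for no effect and wells lacking membranes for full effect; tested at 10 µM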
Target sequence (Q03530 whole entry, looked up): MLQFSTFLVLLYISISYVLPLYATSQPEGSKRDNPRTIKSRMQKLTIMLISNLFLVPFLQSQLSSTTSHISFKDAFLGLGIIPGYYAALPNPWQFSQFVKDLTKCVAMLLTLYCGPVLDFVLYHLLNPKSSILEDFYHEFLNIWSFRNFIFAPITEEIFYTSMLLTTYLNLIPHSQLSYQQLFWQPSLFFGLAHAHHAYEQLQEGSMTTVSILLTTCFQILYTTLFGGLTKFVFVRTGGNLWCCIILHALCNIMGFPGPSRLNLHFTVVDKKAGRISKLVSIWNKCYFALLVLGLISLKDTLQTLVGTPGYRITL
eIF4H FP inh retest = recorded beside eIF4H FP inh, whose call it bears; inhibition, %; compound at 20 µM; confirmation average;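 mean of two retest wells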
PABP FP inh retest = recorded beside PABP FP inh, whose call it bears; inhibition, %; compound at 20 µM; confirmation repeats;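 mean of two retest wells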
MT1-MMP act inh RFP = second read-out of MT1-MMP act inh, no call of its own (marks repeat the call); RFP signal change, %; measured here: RFP expression control read;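 0 = vehicle wells; hits needed this value within 50% of zero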
Active calls of the source: *; i = inactive; ? = inconclusive; nt = not tested or not shown. The order is random; overall some 3% were active at least once.

SMILES | MT1-MMP act inh | MT1-MMP act inh RFP | PABP FP inh | Env fusion inh | CSC inhib | Yeast UUG start | eIF4H FP inh | Rce1 inh | others
O=C(CCN1C(=O)/C(=C/c2ccccc2Cl)SC1=S)NC1C=CS(=O)(=O)C1 (configuration not stated) | -2 | -1 | 3 | -7 | -24 | -6 | 8 | i
CCOc1ccc(C(=O)CCC(=O)Nc2ccc(C)cn2)cc1 | -9 | -2 | nt | -12 | -10 | -1 | nt | i
Cc1noc2ncnc(Sc3ccc(Cl)cc3)c12 | -8 | -12 | 6 | nt | 51 | -11 | 9 | i
O=C(CSc1ncccn1)NN=C1CCCCCCC1 | 4 | 2 | 6 | nt | -14 | -6 | -6 | i
CCCCCCCn1c(=O)c(C(=O)OC)c(N)c2ccccc21 | -8 | -25 | 14 | 14 | 1 | 2 | -5 | i
COc1cccc(-c2noc(-c3ccc4c(c3)OCO4)n2)c1 | 5 | 5 | 2 | -232 | 18 | nt | -12 | i
COC(=O)C1=C(C)N(Cc2ccco2)C(=O)C1 | 0 | 7 | 9 | nt | -1 | -16 | 24 | i
S=C(NCc1ccco1)N1CCN(c2nc(-c3ccc(Cl)cc3)cs2)CC1 | -7 | -14 | 4 | 24 | 5 | nt | -5 | i
CCSC1=C(C#N)C(c2ccc(C)s2)CC(=O)N1 (configuration not stated) | 3 | -1 | -16 | nt | -14 | -14 | -4 | i
Cn1cccc1CC(=O)NNC(=S)Nc1ccc(Cl)cc1 | 2 | 2 | 3 | -5 | 2 | nt | 57 | i | eIF4H FP inh retest=1;PABP FP inh retest=15
COc1cc(NC(=O)c2ccccc2[N+](=O)[O-])ccc1NC(=O)C(C)C | 2 | 5 | -4 | -10 | -1 | 13 | 3 | i
COc1cccc(NC(=O)N2CCCC2C(=O)NC(C)C)c1 (configuration not stated) | 2 | 3 | -2 | -47 | nt | -4 | -11 | i
Cc1cc(S(=O)(=O)n2[nH]c(=O)c(CCO)c2C)c(Cl)cc1Cl | 0 | 0 | 2 | -16 | -7 | -26 | -6 | i
O=C(CSc1ncnc2sc(-c3ccccc3)cc12)NC1CCS(=O)(=O)C1 (configuration not stated) | -2 | -7 | -6 | 0 | -17 | nt | 0 | i
CSCCC(NC(=O)c1cccc(C)c1)C(=O)OCN1C(=O)c2ccccc2C1=O (configuration not stated) | 6 | 7 | nt | -6 | -9 | nt | nt | i
Clc1ccccc1CNc1ncnc2nc[nH]c12 | -2 | -5 | -9 | 15 | -10 | -5 | -5 | i
CCc1ccc(-n2c(C)cc(/C=N/NC(=O)OC)c2C)cc1 | -7 | -5 | -4 | -14 | -13 | -25 | -5 | i
O=C(NCCc1ccc(Cl)cc1)C1CCCN(S(=O)(=O)N2CCCCCC2)C1 (configuration not stated) | -1 | -4 | nt | 17 | -13 | -13 | nt | i
Fc1ccc(-c2n[nH]c(=S)c3ccccc23)cc1 | 2 | -1 | 2 | ? | -6 | -13 | 9 | i
CCCC1(CCC)NC(=O)N(CC(=O)Nc2cccc(OC)c2)C1=O | 2 | 2 | 8 | nt | -1 | -6 | 2 | i
CCOC(=O)c1cc(NC(=O)c2c(C)noc2C)cc(C(=O)OCC)c1 | 1 | 5 | -11 | 20 | 0 | -7 | -3 | i
N#Cc1nc(-c2ccccc2Cl)oc1N1CCCCC1 | -1 | 0 | 8 | nt | 8 | -10 | 1 | i
O=C1CCN(CCc2ccccc2)CCN1CCO | 2 | 3 | 5 | -7 | 8 | -9 | -3 | i
CCOC(=O)/C=C1\SC(C)C(=O)N1CC(=O)N(CCC#N)c1ccccc1 (configuration not stated) | 3 | 3 | nt | nt | -19 | 0 | nt | nt
Cc1cccc([C@@H]2[C@@H]3C(=O)N(Cc4ccccc4)C(=O)[C@@H]3[C@]3(Cc4ccccc4)C(=O)N(c4cccc(F)c4)C(=O)N23)c1 | 2 | 0 | nt | -1 | 6 | -5 | nt | i
C[C@H](N)c1nnc(SCC(=O)N(C)C)o1 | -2 | 5 | -2 | -28 | -3 | -14 | -7 | i
CCCn1nc(NC(=O)C2CCCO2)c2cc3ccc(C)cc3nc21 (configuration not stated) | -1 | -4 | 4 | 3 | -5 | -10 | 10 | i
CC(C)CC[n+]1ccccc1/C=C/c1ccc(N(C)C)cc1 | -130 | 4 | 64* | 61* | -1 | 2 | ? | i | PABP FP inh retest=72*
CC(=O)Nc1ccc(S(=O)(=O)Nc2ccc(S(=O)(=O)Nc3nccs3)cc2)cc1 | 2 | 3 | 0 | -7 | nt | -12 | -5 | i
O=C(c1cccc(S(=O)(=O)NCc2ccccc2)c1)N1CCN(Cc2ccccc2)CC1 | 6 | 0 | -9 | nt | 2 | -2 | 1 | i
CCn1nnc(NC(=O)c2c(OC)cccc2OC)n1 | -1 | 3 | 5 | 8 | -7 | -16 | 0 | i
O=C(O)c1cccc(CN2C(=O)c3ccccc3C2=O)c1 | nt | nt | 17 | -14 | -11 | 8 | -1 | i
CCc1nc2ccc(C(=O)Nc3cccc(NS(C)(=O)=O)c3)cn2c1N(C)CCCc1ccccc1 | 1 | -1 | nt | -77 | nt | 2 | nt | nt
CCc1sc(C(=O)NCCc2ccc(S(N)(=O)=O)cc2)cc1Br | 7 | 1 | -1 | -1 | -13 | -7 | 11 | i
CC(CCc1ccccc1)N1CCN(Cc2ccccc2)CC1 (configuration not stated) | 4 | 1 | -11 | -74 | -5 | -18 | 7 | i
COc1cccc(NC(=O)CN(C)C(=O)CC(NC(=O)c2ccccc2Cl)c2ccccc2)c1 (configuration not stated) | -1 | 3 | nt | 6 | nt | 1 | nt | nt
CCOC(=O)c1cnc2c(C)cccc2c1NCc1ccco1 | 4 | -2 | 7 | 3 | -4 | -4 | 0 | i
COc1cccc(-n2c(SCC(N)=O)nc3ccccc3c2=O)c1 | -6 | 7 | 5 | -17 | -12 | nt | 58* | i | eIF4H FP inh retest=94*;PABP FP inh retest=48
O=C(COC(=O)c1ccc(F)c(S(=O)(=O)N2CCOCC2)c1)c1ccc(Cl)cc1 | -4 | -3 | nt | nt | 3 | -9 | nt | nt
Cc1ccc(S(=O)(=O)N2CCOC23CCN(S(=O)(=O)c2c(C)cc(C)cc2C)CC3)cc1 | -5 | -17 | nt | 9 | 11 | -3 | nt | i
O=C(Cn1nnc2ccccc21)N/N=C\C=C\c1ccccc1 | -2 | -4 | 1 | 3 | 1 | -15 | 1 | i
CCCCN1C(=O)C(O)=C(C(C)=O)C1c1ccc(OC)cc1OC (configuration not stated) | 5 | 4 | 8 | nt | -24 | -14 | -10 | i
Cc1ccc2c(c1)c1c(n2CC(O)Cn2nc(C)c(Br)c2C)C(=O)CCC1 (configuration not stated) | -4 | -15 | -7 | nt | 9 | -10 | -8 | i
NC(=O)c1ccc(NS(=O)(=O)c2ccc(S(=O)(=O)N3CCCC3)cc2)cc1 | 0 | 3 | nt | 17 | nt | -5 | nt | nt
CCC(CC)=NNc1ccc(S(N)(=O)=O)cc1[N+](=O)[O-] | 6 | 3 | 7 | -7 | 2 | 3 | 3 | i
CCOc1ccc(-c2cc(C(=O)NCCCN3CCOCC3)c3ccccc3n2)cc1 | -2 | 3 | nt | -3 | -7 | -7 | nt | i
CCn1cc(Cl)c(C(=O)Nc2c(C)nn(Cc3c(F)c(F)c(F)c(F)c3F)c2C)n1 | 1 | -5 | 1 | 3 | nt | -7 | -2 | i
Cc1ccc(S(=O)(=O)N(CC(=O)Nc2ccc(F)cc2)C(=O)N2CCN(C)CC2)cc1 | -4 | 2 | nt | -2 | 3 | -2 | nt | i

Of the compounds above, 5 contain fluorine.
SMILES | MT1-MMP act inh | MT1-MMP act inh RFP | PABP FP inh | Env fusion inh | CSC inhib | Yeast UUG start | eIF4H FP inh | Rce1 inh | others
Fc1ccc(-c2n[nH]c(=S)c3ccccc23)cc1 | 2 | -1 | 2 | ? | -6 | -13 | 9 | i
Cc1cccc([C@@H]2[C@@H]3C(=O)N(Cc4ccccc4)C(=O)[C@@H]3[C@]3(Cc4ccccc4)C(=O)N(c4cccc(F)c4)C(=O)N23)c1 | 2 | 0 | nt | -1 | 6 | -5 | nt | i
O=C(COC(=O)c1ccc(F)c(S(=O)(=O)N2CCOCC2)c1)c1ccc(Cl)cc1 | -4 | -3 | nt | nt | 3 | -9 | nt | nt
CCn1cc(Cl)c(C(=O)Nc2c(C)nn(Cc3c(F)c(F)c(F)c(F)c3F)c2C)n1 | 1 | -5 | 1 | 3 | nt | -7 | -2 | i
Cc1ccc(S(=O)(=O)N(CC(=O)Nc2ccc(F)cc2)C(=O)N2CCN(C)CC2)cc1 | -4 | 2 | nt | -2 | 3 | -2 | nt | i

5 compounds picked at random from those above:
SMILES | MT1-MMP act inh | MT1-MMP act inh RFP | PABP FP inh | Env fusion inh | CSC inhib | Yeast UUG start | eIF4H FP inh | Rce1 inh | others
Cc1ccc(S(=O)(=O)N(CC(=O)Nc2ccc(F)cc2)C(=O)N2CCN(C)CC2)cc1 | -4 | 2 | nt | -2 | 3 | -2 | nt | i
CCC(CC)=NNc1ccc(S(N)(=O)=O)cc1[N+](=O)[O-] | 6 | 3 | 7 | -7 | 2 | 3 | 3 | i
O=C(COC(=O)c1ccc(F)c(S(=O)(=O)N2CCOCC2)c1)c1ccc(Cl)cc1 | -4 | -3 | nt | nt | 3 | -9 | nt | nt
O=C(Cn1nnc2ccccc21)N/N=C\C=C\c1ccccc1 | -2 | -4 | 1 | 3 | 1 | -15 | 1 | i
Cc1ccc2c(c1)c1c(n2CC(O)Cn2nc(C)c(Br)c2C)C(=O)CCC1 (configuration not stated) | -4 | -15 | -7 | nt | 9 | -10 | -8 | i

(next part)
SMILES | MT1-MMP act inh | MT1-MMP act inh RFP | PABP FP inh | Env fusion inh | CSC inhib | Yeast UUG start | eIF4H FP inh | Rce1 inh | others
Cc1cc2ccccc2n2c(SCC(=O)Nc3ccc(S(=O)(=O)N4CCC(C)CC4)cc3)nnc12 | 4 | -12 | -8 | -4 | 15 | nt | 2 | i
Cc1ccc(C)c(NC(=O)NC2CCCCCCC2)c1 | nt | nt | -8 | 7 | -10 | 5 | 2 | i
CCOC(=O)N1CCN(C(=S)Nc2cc(S(=O)(=O)N3CCOCC3)ccc2Cl)CC1 | 1 | -4 | -4 | 15 | -1 | -7 | -2 | i
Cc1ccc(N(C(=O)Cn2nnc3ccccc32)C(C(=O)NCc2ccco2)c2cccnc2)cc1 (configuration not stated) | -3 | 2 | 1 | nt | -9 | -9 | -3 | i
S=C(NCC1CCCO1)N1CCN(c2ccc(Cl)c(Cl)c2)CC1 (configuration not stated) | 4 | -20 | -16 | 27 | 10 | -17 | -2 | i
O=C(NCCCc1ccccc1)C1CCC(CNc2c(N3CCCCC3)c(=O)c2=O)CC1 (configuration not stated) | -3 | -6 | 6 | -48 | -5 | -1 | 8 | i
Cc1nc2ccc(NC(=S)N3CCC(C)CC3)cc2nc1C | 0 | 2 | 3 | -43 | -10 | -29 | 5 | i
OC(c1cccc(Cl)c1)c1nc(-c2cccc3cccnc23)cs1 (configuration not stated) | -1 | 1 | nt | -14 | nt | -4 | nt | nt
FC(F)(F)c1cc(-c2cccs2)nc(-n2cc(Cl)cn2)n1 | 1 | -5 | -1 | -32 | -17 | -19 | 1 | i
CC1Nc2ncnc(N3CCc4ccccc4C3)c2N(Cc2ccccc2)C1=O (configuration not stated) | 2 | 1 | nt | 4 | nt | -16 | nt | nt
